# Screens: PubChem BioAssay, National Center for Advancing Translational Sciences (NCATS)
# Sfp PPTase inh = qHTS Assay for Inhibitors of Bacillus subtilis Sfp phosphopantetheinyl transferase (PPTase) | Potency, µM, for the others: max response, negative = inhibition, hits mostly inhibitors | AID 1490, 2009 | 310,000 compounds, 3.5% hits | 4'-phosphopantetheinyl transferase ffp (Bacillus subtilis), Q9F4F7 | Biochemical Sfp PPTase activity, qHTS; active means well fitted inhibition curve with a large enough effect; inconclusive means small, poorly fitted or top-dose-only effect, or another doubt; inactive means no such curve, though single readings can be large or run the other way;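 further: the enzyme is Sfp with the accession as filed and its product quenches rhodamine fluorescence; potency means the concentration at half of the fitted maximal effect; 0% = enzyme reaction without inhibitor and -100% = no enzyme wells; top concentration of the series not given in the record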
#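 Sfp 15 nM + cpd, 15 min RT; start w/ rhodamine-CoA 5 uM, BHQ-2-YbbR 12.5 uM (final); 50 mM Hepes pH 7.6, 10 mM MgCl2, 0.01% NP-40, 0.01% BSA; read 525/598 nm at 0 and 30 min.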
# CtBP-E1A inh = qHTS Assay for Inhibitors of the CtBP/E1A Interaction; CtBP / adenovirus E1A interaction (AlphaScreen); AlphaScreen GST-E1A/His-CtBP binding, 1536-well; hits give low values; control for the full effect not named in the record; activity change, % (no concentration beside the values); 340,000 compounds, 0.49% hits; AID 651724, 2012; in the data active means activity change below about -65%; inconclusive means about -30% to -65%; inactive means above about -30%; further: on the % scale 0 is the no-effect control and ±100 the full control effect
#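 Homogeneous bead-based format: GST-tagged E1A captured on glutathione donor beads, His-tagged CtBP on nickel acceptor beads; compounds precede bead addition by 2 h at 37 °C.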
# D2 ag = Beta-Arrestin HTS for Positive Allosteric Modulators of the Human D2 Dopamine Receptor: Agonists. D(2) dopamine receptor (Homo sapiens), P14416. DiscoveRx PathHunter D2 beta-arrestin, luminescence, 90 min; 100% = 57 uM dopamine signal. activation, % (test concentration not listed). 360,000 compounds, 0.084% hits; in the data active = activation above about 40%; inconclusive = about 15% to 40%; inactive = below about 15%; further: compound concentration not given in the record; the text of the record calls up to 30% inactive
#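 DiscoveRx PathHunter D2 beta-arrestin cells (2,100/well) attached overnight, then compound-stimulated 90 min at 37 C in HBSS/10 mM HEPES/0.1% Tween-20 buffer; beta-galactosidase complementation read by luminescence after 1 h at ambient temperature. Dopamine 57 uM final (EC100) as control.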
# TRPV1 potentiator = HTS Assay for Compounds that Act as Potentiators of the Vanilloid Receptor 1 | Transient receptor potential cation channel subfamily V member 1 (Homo sapiens), Q8NER1 | TRPV1-expressing cells, Fluo-8 calcium influx, capsaicin EC20 potentiation; host cell line not named in the record; control for the full effect not named in the record | 320,000 compounds, 0.02% hits | potentiation, % at 8.33 µM; active means potentiation above 80%; inconclusive means 30% to 80%; inactive means below 30%; further: 0% is about no effect
# Target sequence (Q8NER1 whole entry, looked up): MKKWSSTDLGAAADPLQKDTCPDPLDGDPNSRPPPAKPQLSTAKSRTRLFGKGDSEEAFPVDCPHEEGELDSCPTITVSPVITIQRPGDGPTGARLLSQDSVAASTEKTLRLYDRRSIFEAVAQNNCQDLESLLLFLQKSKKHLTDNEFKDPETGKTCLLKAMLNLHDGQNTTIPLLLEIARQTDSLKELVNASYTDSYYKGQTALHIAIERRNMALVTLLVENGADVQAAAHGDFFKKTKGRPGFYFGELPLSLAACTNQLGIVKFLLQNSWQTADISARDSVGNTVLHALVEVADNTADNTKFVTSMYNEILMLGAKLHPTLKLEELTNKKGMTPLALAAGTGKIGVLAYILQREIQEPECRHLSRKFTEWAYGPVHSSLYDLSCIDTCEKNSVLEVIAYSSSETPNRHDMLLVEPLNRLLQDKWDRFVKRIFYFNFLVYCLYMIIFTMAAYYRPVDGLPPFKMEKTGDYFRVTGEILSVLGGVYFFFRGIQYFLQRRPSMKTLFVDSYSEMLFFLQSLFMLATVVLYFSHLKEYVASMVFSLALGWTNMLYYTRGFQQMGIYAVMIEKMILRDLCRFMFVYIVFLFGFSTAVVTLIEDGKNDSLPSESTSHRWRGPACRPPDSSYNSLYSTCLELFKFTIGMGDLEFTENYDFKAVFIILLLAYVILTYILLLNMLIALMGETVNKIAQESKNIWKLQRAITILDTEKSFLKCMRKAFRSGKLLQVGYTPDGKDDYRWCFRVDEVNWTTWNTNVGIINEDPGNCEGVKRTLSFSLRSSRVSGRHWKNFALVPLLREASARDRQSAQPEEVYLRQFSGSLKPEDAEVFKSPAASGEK
#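 Cells expressing TRPV1 were dye-loaded with Fluo-8 and read kinetically: 10 s baseline, 3 min after compound (agonist portion), then 2 min after EC20 capsaicin (allosteric enhancer portion). Calcium-bound dye fluorescence at 480/520 nm.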
# PINK1 modulator = A Quantitative High throughput Screen to Identify Chemical Modulators of PINK1 Expression; PINK1 immunofluorescence, high-content cytometry, 24 h; Potency, µM (doses to about 76.6 µM), for inactives: at the top dose activation (PINK1 increase), actives largely listed as activators; 410,000 compounds, 0.2% hits; AID 624263, 2012; active = well fitted activation curve with a large enough effect; inconclusive = small, poorly fitted or top-dose-only effect; inactive = flat fitted curve, though single readings scatter; cell line not stated here;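 further: potency means the concentration at half of the fitted maximal effect; % of control where 0% means no effect; nearly all actives have a fitted effect of over 65% in size; a mitochondrial uncoupler was the plate control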
#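 Measures PINK1 amount and localization on or inside mitochondria by immunofluorescence. Stable cells get compounds at 5 concentrations for 24 hours before fixation and staining; CCCP controls included.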
# D2 potentiator = Beta-Arrestin HTS for Positive Allosteric Modulators of the Human D2 Dopamine Receptor: Potentiators; D(2) dopamine receptor (Homo sapiens), P14416; DiscoveRx D2 beta-arrestin cells, luminescence, 90 min; 100% = 57 uM dopamine signal; potentiation, % (no concentration beside the values); 360,000 compounds, 0.23% hits; active = potentiation of 50% or more; inconclusive = 30% to 50%; inactive = 30% or less;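 further: compound concentration not given in the record; tested on top of an EC20 dose of dopamine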
#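 PathHunter beta-arrestin assay in DiscoveRx D2 cells. Compounds were added with an EC20 of dopamine (50 nM final) for 90 min at 37 deg C. Luminescence was read 1 h after detection reagent, with 57 uM dopamine as the EC100 control.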
# Six1-Eya2 blk = qHTS Assay for Inhibitors of the Six1/Eya2 Interaction | AlphaScreen GST-Six1/His-Eya2 binding, biochemical; hits give low values; control for the full effect not named in the record | activity change, % (concentration not given with the values) | 360,000 compounds, 0.56% hits | AID 651725, 2012; in the data active = activity change below about -65%; inconclusive = about -30% to -65%; inactive = above about -30%; further: on the % scale 0 is the no-effect control and ±100 the full control effect
#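 Compounds are tested against tagged Six1 and Eya2 proteins bridged by glutathione donor and nickel acceptor beads; after a one-hour incubation at 37 °C without light, AlphaScreen emission is recorded.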
# * marks the source's active call; other numbers are inactive results; u = inconclusive; x = not tested or not shown; [ ] = another dose, or the depositor's remark.
SMILES,Sfp PPTase inh,CtBP-E1A inh,D2 ag,TRPV1 potentiator,PINK1 modulator,D2 potentiator,Six1-Eya2 blk
CC(C)NC(=O)CSc1ccccc1C(=O)N1CCN(S(=O)(=O)Cc2ccccc2)CC1,x,-3,-0.5,-7,1.5%,-6,0
CC(C)COc1ccc(C(=O)OCC(=O)NCc2cccs2)cc1,x,13,-6.3,x,3.3%,-13,0
CCOC(=O)[C@]12CCCC=C1N(Cc1cccc3ccccc13)C(=O)[C@H](CC(=O)NCC13CC4CC(CC(C4)C1)C3)C2,x,-12,x,x,1.9%,x,-14
COc1ccc(N2CCN(C(=O)c3cc(C)on3)CC2)cc1,12%,-25,2.5,-4,1.1%,-14,0
CCC(C)c1ccccc1OCCn1ccnc1 (stereo unspecified),-23%,-1,-4.3,-3,-2.0%,-15,-1
CCN(C(=O)CSc1nnc(C)c(=O)[nH]1)c1cccc2ccccc12,x,0,-2.9,x,1.4%,3,19
CCOC(=O)c1sc(=S)n(-c2ccc(C)cc2)c1SC,-11%,4,-5.4,26,x,-7,-10
COc1cc(/C=N/NC(=O)c2cc3ccccc3cc2O)ccc1OCCN1CCCCC1,40µM*,-3,12,u,7.4%,-17,-17
CN(C)S(=O)(=O)c1ccc(C(=O)OCC(=O)c2ccc3c(c2)NC(=O)CO3)cc1,-4%,3,-4.4,-14,2.2%,-1,9
COc1ccccc1N(CC(=O)Nc1ccc(Cc2ccncc2)cc1)S(=O)(=O)c1ccccc1,15%,-5,2.8,-5,11%,-1,1
Cc1nn(CC(=O)NC(=O)NC2CCCCC2C)c(=O)c(C#N)c1C (stereo unspecified),x,1,-6.1,5,-0.1%,6,-7
Cc1ccc(S(=O)(=O)N2CCN(S(=O)(=O)c3c(C)n[nH]c3C)CC2)cc1C,x,3,-1.0,1,3.0%,0,1
Cc1ccc(-c2nc(COC(=O)C3=NN(c4ccccc4)C(=O)CC3)cs2)cc1,x,3,3.1,3,1.9%,-1,-1
O=C1C(Cc2ccc3[nH]ccc3c2)NC(=S)N1c1ccccc1 (stereo unspecified),1%,-1,-4.4,3,-0.5%,-6,-2
O=C(Nc1ccc2ncccc2c1)c1cccc(Br)c1,-7%,1,-3.8,-22,1.2%,-2,8
Cc1nnc(SCC(=O)Nc2ccccc2F)n1Cc1ccco1,8%,-1,-2.7,13,1.1%,-9,0
COc1ccc(-c2nnn(CC(=O)N(CC(=O)NC3CCCC3)c3ccccc3)n2)cc1OC,11%,5,-3.3,6,1.3%,-3,-2
Cc1scc(-c2n[nH]c(=S)n2C(C)c2ccccc2)c1C (stereo unspecified),11%,-7,5.2,-4,12%,-8,-1
O=C(Nc1ccccc1)OCC1CCCN2CCCCC12 (stereo unspecified),-3%,2,-1.4,-6,2.9%,-28,0
Cc1ccccc1C(=O)NN1C(=O)CSC1=S,-23%,-23,-1.7,11,7.6%,-27,0
C/C(=N\Nc1ccc(Cl)c(C(=O)O)c1)c1cccc([N+](=O)[O-])c1,-3%,x,-2.6,13,0.3%,4,12
COc1ccc2oc(=O)c(C(=O)C[n+]3cccc(C)c3)cc2c1,u,5,-1.2,2,-0.9%,1,-13
COC(=O)Nc1ccc(S(=O)(=O)N2CCCc3ccccc32)cc1,-4%,2,-3.3,-11,u,13,-1
CCOc1ccccc1OCCCC(=O)Nc1cccc(-n2cnnn2)c1C,x,4,3.4,-4,-0.6%,-2,0
CNC(=S)NCCc1ccc(OC)c(OC)c1,12%,12,2.9,-3,3.7%,0,3
CC(C)OCCCNC(=O)c1ccc(N(C)S(C)(=O)=O)cc1,6%,4,-0.5,-5,1.2%[38.3 µM],0,0
Cc1nc2ccc(C(=O)O)cc2c2c1CC(C)S2 (stereo unspecified),-20%,-1,-2.5,4,-1.8%,-4,-26
Cc1nc2c(c(C)nn2-c2ccccc2)c(C)c1CCC(=O)NCCCOC(C)C,5%,-6,4.1,-10,2.6%,2,-4
CCOC(=O)C1(c2csc(N)n2)COC(=O)C1 (stereo unspecified),-25%,-17,-3.8,-34,-4.5%,3,3
O=C(CC1=NCCNC(c2ccccc2)C1)c1ccccc1O (stereo unspecified),11%,-8,-2.7,-9,-2.6%,-14,3
CCc1sc(C(=O)N2CCN(CC(=O)Nc3cccc(F)c3)CC2)cc1C,x,0,0.9,-12,0.7%,0,21
CC(C)OC(=O)c1ccc(NCc2cc(O)ccc2O)cc1,x,8,14,x,-6.9%,u,-24
COc1cccc(C2=NCCc3cc4c(cc32)OCO4)c1OC,13%,-7,-6.0,-2,2.3%,-3,8
Cn1c(C(=O)NCCCN2CCCC2=O)cc2c(=O)n(C)c3ccccc3c21,28%,-3,4.3,21,1.9%,4,-6
CCN(CC(=O)NCc1ccc(F)cc1)CC(=O)NC1CCCC1,17%,0,-0.6,u,2.8%,10,24
Cn1c(-c2ccc3c(c2)OCO3)cnc1N,7%,u,-2.1,-1,6.5%[38.3 µM],-3,u
COC(=O)CC1C(=O)NCCN1C(=S)NC(=O)c1sc2ccccc2c1Cl (stereo unspecified),79µM*,-3,-4.3,1,0.0%,-7,u
Cc1cc2nc(C3CCN(C(=S)NCCCOC(C)C)CC3)[nH]c2cc1C,21%,3,3.0,4,-1.5%,-9,-4
Cc1nn(C)c(C)c1CNC(=O)c1cc2n(n1)C(C(F)(F)F)CC(c1cccs1)N2 (stereo unspecified),-5%,8,0.5,-2,x,1,3
O=C1Nc2ccc(S(=O)(=O)NCc3ccccn3)c3cccc1c23,9%,-2,-3.1,-2,-1.3%,-6,-7
COc1cccc(N2CCN(C(=O)c3cc(C)oc3C)CC2)c1,x,3,-0.2,5,6.2%,-23,-4
Cc1ccc(-c2ccc3c(c2)O[C@H](CN(C)C(=O)Nc2ccc(C(F)(F)F)cc2)[C@H](C)CN([C@H](C)CO)S3(=O)=O)cc1,x,0,-4.5,x,1.4%,-6,3
COc1ccc(CNC(=O)COc2ccc(C)nc2[N+](=O)[O-])cc1,2%,-8,-8.1,9,-0.1%,-7,3
Cc1ccc(C)c(NC(=O)COc2cccc3c2CCN(Cc2ccccc2C)C3=O)c1,4%,-3,-3.6,-9,0.4%,-28,-2
Cc1ccc(S(=O)(=O)N(C)C)cc1NC(=O)COC(=O)CCC1CCCC1,x,-2,-3.1,23,3.9%,-14,9
Cc1cc(NC(=O)C2CC(=O)N(c3cccc(Cl)c3)C2)no1 (stereo unspecified),16%,26,-2.0,-19,2.4%,0,9
Cn1nc(C(C)(C)C)c([N+](=O)[O-])c1C(=O)N1CCOCC1,14%,x,-3.3,9,-1.5%,-3,7
O=C(CSc1nccc(-c2cccs2)n1)Nc1ccc(Cl)cc1,-7%,x,-2.8,1,4.5%,-29,0
OCc1nc2ccccc2n1CCCCOc1ccccc1,x,-12,1.6,x,0.2%,-3,-1
C/C=C(/C)C(=O)O[C@@H]1[C@H](OC(=O)C=C(C)C)c2c(ccc3ccc(=O)oc23)OC1(C)C,10%,2,-3.0,-8,4.4%,-7,2
CC1CCCCC1N1CN=C(Nc2nc3ccccc3s2)NC1 (stereo unspecified),16%,2,-3.7,2,17%[38.3 µM],-15,-1
O=C(NC1CCCCC1)C(=S)N1CCOCC1,50µM*,-16,0.3,6,-0.1%,9,4
O=C(CN1CCCCC1)NC1CCc2cc3c(cc21)CCC3 (stereo unspecified),x,6,4.0,x,5.9%,-27,0
CCSc1nnc(C)n1-c1ccc(C(=O)O)cc1,-28%,7,-3.6,-1,-1.6%,-6,-5
CC(Oc1ccccc1)C(=O)N1CCN=C1SCc1ccccc1 (stereo unspecified),-6%,8,-2.0,-23,-0.1%,-16,15
CCCCNC(=O)c1cc([N+](=O)[O-])[nH]n1,-11%,5,-0.6,-2,2.2%,2,3
CS(=O)(=O)N(CC(=O)NCc1ccc2c(c1)OCO2)Cc1ccc(Cl)cc1,6%,-3,-0.3,16,-0.4%,-4,8
O=C(CN1C(=O)c2cccc3cccc(c23)C1=O)NCCCO,-1%,1,-1.6,0,0.1%,-6,4
CCOC(=O)N1CCN(S(=O)(=O)c2ccc(F)c(C(=O)Nc3cccc(Cl)c3C)c2)CC1,1%,3,5.2,-10,u,4,0
O=C(O)c1nccnc1C(=O)Nc1ccccc1N1CCOCC1,-20%,-3,2.1,-10,0.1%,-8,2
CCOc1ccccc1NC(=O)C(NCC1CCCCC1)c1ccccc1 (stereo unspecified),-11%,x,-5.6,-3,29%,-11,8
COc1ccc2sc(NC(=O)CC(C)C)nc2c1,7%,2,-2.2,-3,1.9%,3,-2
COc1ccc(NC(=O)CSCC(=O)N2CCN(C(=O)c3ccco3)CC2)cc1,x,6,-7.2,-11,0.0%,0,2

# Some of the entries above in a different format.
mol: CCOC(=O)N1CCN(S(=O)(=O)c2ccc(F)c(C(=O)Nc3cccc(Cl)c3C)c2)CC1
  Sfp PPTase inh = 1%; CtBP-E1A inh = 3; D2 ag = 5.2; TRPV1 potentiator = -10; PINK1 modulator = u; D2 potentiator = 4; Six1-Eya2 blk = 0
mol: O=C(O)c1nccnc1C(=O)Nc1ccccc1N1CCOCC1
  Sfp PPTase inh = -20%; CtBP-E1A inh = -3; D2 ag = 2.1; TRPV1 potentiator = -10; PINK1 modulator = 0.1%; D2 potentiator = -8; Six1-Eya2 blk = 2
mol: CCOc1ccccc1NC(=O)C(NCC1CCCCC1)c1ccccc1 (stereo unspecified)
  Sfp PPTase inh = -11%; CtBP-E1A inh = x; D2 ag = -5.6; TRPV1 potentiator = -3; PINK1 modulator = 29%; D2 potentiator = -11; Six1-Eya2 blk = 8
mol: COc1ccc2sc(NC(=O)CC(C)C)nc2c1
  Sfp PPTase inh = 7%; CtBP-E1A inh = 2; D2 ag = -2.2; TRPV1 potentiator = -3; PINK1 modulator = 1.9%; D2 potentiator = 3; Six1-Eya2 blk = -2
